Screens (PubChem BioAssay)
Hsc70 – Hsc70 inhibitors, probe displacement, primary screen, biochemical, fluorescence polarization (AID 568); Hsc70 fluorescence polarization, probe displacement; higher % means a stronger effect; strong numbers were not always called active; 83,000 tested, under 10 active; displacement, % at 20 µM, or IC50 in µM where a hit was titrated; Heat shock cognate 71 kDa protein (Homo sapiens);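 active = displacement above 50% without optical interference and an IC50 on retest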;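 also: ATPase domain with a fluorescein-tagged ATP probe; 0% = vehicle and 100% = excess ADP; read after one hour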
WNV protease inh – inhibitors of WNV NS2B-NS3 protease, primary screen, biochemical, fluorogenic substrate; Genome polyprotein (West Nile virus), P06935; fluorogenic substrate Ex360/Em465; active compounds read low; z-score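 (tested at a level between 10 and 100 µM)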; 65,000 tested, 0.18% active; AID 577, 2007;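 active = z-score at -3 or under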;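 also: score is relative to mean and spread of the compound wells of a plate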
Target sequence (P06935 1371-1501 limits assumed): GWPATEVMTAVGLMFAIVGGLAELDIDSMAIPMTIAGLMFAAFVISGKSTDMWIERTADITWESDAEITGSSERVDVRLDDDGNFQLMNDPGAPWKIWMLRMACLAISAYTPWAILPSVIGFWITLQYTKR
Target sequence (P06935 1502-1679 limits assumed): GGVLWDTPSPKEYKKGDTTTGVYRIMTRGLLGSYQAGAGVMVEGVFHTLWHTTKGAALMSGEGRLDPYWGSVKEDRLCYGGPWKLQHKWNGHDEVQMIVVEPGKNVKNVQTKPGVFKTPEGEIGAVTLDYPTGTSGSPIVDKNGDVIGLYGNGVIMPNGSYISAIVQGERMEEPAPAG
MT1-MMP reporter – inhibitors of MT1-MMP promoter transcription, cell-based, luciferase reporter, luminescence (AID 618); MT1-MMP promoter luciferase reporter cells, luminescence; calls from a first round at 10 µM; hits with a dose series show EC50 in µM; 87,000 tested, 0.62% active;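 active = over half of the reporter light lost at 10 µM or EC50 under 50 µM; inactive = the rest and hits that failed the dose series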;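 also: actives suppress MT1-MMP promoter-driven transcription so potencies describe inhibitors; HT1080 fibrosarcoma cells; overnight exposure; toxic or luciferase-blocking compounds were not removed from the actives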
* marks the source's active call; other numbers are inactive results; i = inactive; x = no result given; + = active, no number. This is a subset, so the mix of outcomes need not match the whole.

SMILES	Hsc70	WNV protease inh	MT1-MMP reporter
Cc1ccc2c(c1)-c1c(cnn1CC(=O)O)CO2	-1.6%	-1.14	i
O=S(=O)(NCc1cn2ccsc2n1)c1ccc(Oc2ccccc2)cc1	-1.4%	0.35	i
Cc1ccc2[nH]c3c(c2c1)CCCC3=O	8.8%	x	i
Cc1c(C(=O)Nc2c(C)n(C)n(-c3ccccc3)c2=O)oc2ccccc12	0.3%	-1.01	i
O=C(Nc1nc(N2C(=O)c3ccccc3C2=O)n(-c2ccccc2)n1)c1ccc(F)cc1	0.1%	x	i
COc1ccc(Nc2ncc3c(n2)CC(c2ccc(OC)cc2)CC3=O)cc1 (stereo unspecified)	-5.8%	-0.43	i
CC(C)(C)c1cc(Br)ccc1OCC(=O)Nc1ncn[nH]1	0.2%	0.54	i
CC(C)C(c1nnnn1C1CCCC1)N1CCCc2ccccc21 (stereo unspecified)	-4.5%	0.54	i
CCOC(=O)N1CCN(c2c(Nc3ccc4c(c3)OCCO4)c(=O)c2=O)CC1	2.9%	-0.46	i
CCC1Oc2ccc(C)cc2N(CC(=O)N(Cc2ccc3c(c2)OCO3)CC2CCCO2)C1=O (stereo unspecified)	-7.8%	0.13	i
O=C(c1ccc(CS(=O)(=O)c2ccc(Br)cc2)o1)N1CCN(c2ncccn2)CC1	1.0%	0.46	i
Cc1cc(C)n(C(=O)c2cc3ccccc3c(=O)o2)n1	-4.4%	0.24	i
Cc1ccc(S(=O)(=O)N(C)CC(=O)NCc2ccncc2)cc1	-2.0%	x	i
COC(=O)c1cccc(-n2nnnc2SCC(=O)Nc2nc3c(s2)CCCC3)c1	-5.2%	0.78	i
CC(NC(=O)Nc1ccccc1)C(c1cccs1)N1CCN(C)CC1 (stereo unspecified)	4.3%	0.55	i
Cn1c(NCc2ccco2)nc2ccccc21	-2.4%	-0.52	i
CCOc1ccc(C(=O)N2CCCCCC2)cc1	0.1%	-0.49	i
c1c2c(cc3sc(N4CCOCC4)nc13)OCO2	1.0%	-0.97	i
COc1ccc(N2C(=O)C3CCCN3C2c2cccc(Br)c2)cc1 (stereo unspecified)	-0.5%	0.89	i
COc1ccc2[nH]c(C)c(CCN3C(=O)OC(C)(C)C3(C)O)c2c1 (stereo unspecified)	-3.5%	1.36	i
CCCOc1ccc(C(=O)Nn2c(C)nc3ccccc3c2=O)cc1	-1.1%	-1.06	i
O=C(O)c1cccc(CN2C(=O)SC(Nc3ccccc3)C2=O)c1 (stereo unspecified)	-1.1%	-0.3	i
CCOc1cc(CN2CCN(CCOCCO)CC2)ccc1OC	4.6%	x	i
Cc1cc(NCc2ccc3c(c2)OCO3)n2nc(C)nc2n1	3.5%	0.53	i
CCOC(=O)c1cc(-c2ccc(/C=N\n3cnnc3)o2)ccc1Cl	3.1%	0.19	i
CC(C)NC(=O)Cn1c(SCC(=O)N2CCc3ccccc3C2)nc2ccccc21	-6.3%	-0.67	i
COc1ccc(-c2nc(-c3cccs3)c(-c3cccs3)[nH]2)cc1O	-3.8%	-1.13	i
C#CCn1cc[n+](CC(=O)N(C)C)c1	-0.7%	-0.63	i
c1ccc(Cn2c(SCc3nc4ccccc4s3)nnc2-c2ccco2)cc1	-2.6%	-1.32	i
O=C(O)C1CC=CCC1C(=O)Nc1ccc(F)c(F)c1 (stereo unspecified)	3.2%	0.58	i
O=C(NC1(C(F)(F)F)C(=O)Nc2c1c(=O)[nH]c(=O)n2Cc1ccccc1)c1ccc(Cl)cc1 (stereo unspecified)	1.1%	x	i
Cc1cnc(NC(=O)COc2ccccc2Cl)s1	-3.1%	-1.28	+
CCSc1nnc([C@H](C)NC(=O)OC(C)(C)C)o1	7.6%	0.35	i
O=C(c1ccc2snnc2c1)N1CCCC1	-0.5%	0.63	i
CC(C)Cn1c(CNC(=O)c2ccccc2)nc2ccccc21	2.0%	-1.23	i
Cc1ccc(-n2c(C)cc3c2CCCC3=O)cc1	5.9%	-0.46	i
CC(C)Cc1nnc(NC(=O)CCC(=O)N2CCOCC2)s1	2.7%	0.69	i
Cc1cc(C(F)(F)F)nc(SCc2ccc(C(=O)O)o2)n1	4.3%	0.11	i
COc1ccc(S(=O)(=O)N2CCN(CC(=O)Nc3cc(C(F)(F)F)ccc3Cl)CC2)cc1	7.0%	1.4	i
CCOC(=O)c1nnn(-c2nonc2N)c1COc1cc(C)c(Cl)c(C)c1	5.7%	0.14	i
COc1cc2nc(NCCN3CCOCC3)n3nc(-c4ccccc4)nc3c2cc1OC	0.5%	0.94	i
Cn1c(Cn2nnc3ccccc32)nnc1SCC(=O)N1c2ccccc2Sc2ccccc21	0.5%	1.17	i
O=C(NCC1CCCO1)c1cc2c(s1)CS(=O)(=O)C2 (stereo unspecified)	-5.1%	1.79	i
CSc1nc(SC)c2c3c(oc2n1)COC(C)(C)C3	-1.6%	-0.36	i
CC1CCCCC1NC(=O)c1cncc(Br)c1 (stereo unspecified)	5.3%	-0.44	i
CCc1ccccc1NC(=O)CSc1nc2n[nH]c(C)c2c(=N)n1-c1ccc(OC)cc1	2.7%	0.13	i
COc1cccc(C(c2sc3ncnn3c2O)N2CCN(C(=O)c3ccco3)CC2)c1 (stereo unspecified)	0.0%	0.12	i
CC(C)C(c1nnnn1C1CCCCC1)N1CCc2ccccc2C1 (stereo unspecified)	0.5%	0.66	i
COc1ccc(-c2noc(CN3CCC(Cc4ccccc4)CC3)n2)cc1	3.4%	-0.32	i
COc1ccc(N2CCCn3c2nc2c3c(=O)n(Cc3ccccc3F)c(=O)n2C)cc1	-6.0%	-0.92	i
O=c1c2c(-c3ccc([N+](=O)[O-])cc3)csc2nc2n1CCC2	6.5%	x	i
O=C(CN1CCOCC1)Nc1nc2ccc(F)cc2s1	-3.3%	x	i
Cc1ccc(N=Cc2ccc[nH]2)c(O)c1	-5.6%	-0.7	i
COc1ccc(C)cc1S(=O)(=O)Nc1ccc(F)cc1	2.6%	-0.36	i
CCCc1c(O)nc(SCCN(CC)CC)[nH]c1=O	0.3%	x	i
CN1CCN(S(=O)(=O)c2cccc(C(=O)Nc3sc4c(c3C(N)=O)CCCC4)c2)CC1	7.5%	-0.82	i
COc1ccc(CCn2c(N)c(C#N)c3nc4ccccc4nc32)cc1OC	-0.6%	-0.4	i
Cc1ccc(NC(=O)CCN2CCc3ccccc3C2)cc1	0.7%	-0.59	i
CCCS(=O)(=O)N1CCN(C(=O)c2cccc(OC)c2)CC1	-1.5%	0.19	i
CS(=O)(=O)N1CCN(C(=O)c2csc3ccccc23)CC1	-3.1%	0.22	i

The list continues.
SMILES	Hsc70	WNV protease inh	MT1-MMP reporter
COc1ccccc1OCc1nc2c3c(-c4ccccc4)c(-c4ccccc4)oc3ncn2n1	0.0%	-0.48	i
COc1ccc2c(c1)n([O-])c1c([n+]2=O)CCC1	9.0%	0.89	i
CN(C)c1ccnc2sc3c(=O)n(-c4ccccc4)cnc3c12	-6.8%	-0.78	i
CCCn1nnc(NC(=O)COc2ccccc2Cl)n1	-3.8%	0.11	i
Cc1cc(C)c(C(=O)c2ccc(C(=O)NC(C)(C)C)cc2)c(C)c1	-0.7%	x	i
CCn1cc(C(=O)Nc2ccccc2C(=O)OC)c(=O)c2ccc(C)nc21	6.4%	0.47	i
O=C(NCc1ccccc1)C1CCN(C(=O)NCc2ccccc2)CC1	-7.2%	-0.99	i
O=C(CC1CCCCC1)Nc1c2c(nn1-c1ccc(F)cc1)CS(=O)(=O)C2	3.0%	1.52	i
CCn1c(SCc2ccc(C#N)cc2)nnc1-c1cccc(Cl)c1	-3.8%	2.49	i
COc1ccc(CC(=O)N2CCC(Nc3nc4ccccc4n3Cc3ccc(F)cc3)CC2)cc1	1.7%	x	i
CCOC(=O)C(C)Sc1nc2c(cnn2-c2ccc(C)cc2)c(=O)[nH]1 (stereo unspecified)	0.9%	0.59	i
CCC(=O)N1CCc2cc(S(=O)(=O)CCC(=O)NCCc3ccc(OC)c(OC)c3)ccc21	-0.6%	-0.04	i
CCN(CC)S(=O)(=O)c1cccc(S(=O)(=O)c2cccc(S(=O)(=O)N(CC)CC)c2)c1	-6.8%	1.06	i
Cc1cc2c(c(SCC(=O)N(C)c3ccccc3)n1)C(=O)OC2	-4.5%	1.18	i
COc1ccc(C(=O)CC(=O)O)c2c1C=CC(C)(C)O2	-5.3%	-1.05	i
CCOCCCNC(=O)CCNC(=O)c1cc(OC)c(OC)c(OC)c1	2.8%	1.24	i
CN1C(=O)/C(=C2\SC(=S)N(CC3CCCO3)C2=O)c2ccccc21 (stereo unspecified)	-0.3%	-0.05	i
O=C(O)C1C2C=CC(C2)C1C(=O)NCc1cccnc1 (stereo unspecified)	-1.2%	x	i
Cc1cc(=O)oc2c3c4c(cc12)OCCN4CCC3	32.0%	x	i
Cc1cccnc1NC1OC(=O)c2ccccc21 (stereo unspecified)	4.0%	x	i
Cc1ccc(S(=O)(=O)Cc2cccc(C(=O)N3CCOCC3)c2)cc1	-4.1%	-0.86	i
c1ccc2sc(-c3ccc4c(c3)OCO4)nc2c1	3.4%	1.52	i
Cn1c(N)c(C(=O)NCc2ccccc2)sc1=S	-11.3%	-0.57	i
COc1ccc(N(CC(=O)Nc2cc(C)ccc2OC)S(=O)(=O)c2c(C)noc2C)cc1	-1.6%	1.46	i
COC(=O)/C(=C\Nc1ccccc1N)c1ncc(C(F)(F)F)cc1Cl	-0.3%	x	i
CCOc1ccc(CCNC(=O)c2oc3c(c2C)-c2[nH]ncc2CC3)cc1OCC	3.5%	0.28	i
CC1=C(C#N)C(c2cn(-c3ccccc3)nc2-c2cccs2)C(C#N)=C(C)N1	-1.7%	-1.06	i
CCOC(=O)C1CCN(Cc2c(F)cccc2Cl)CC1	2.9%	-0.09	i
CC1(C)Cc2c(sc(NC(=O)c3ccco3)c2C#N)C(C)(C)N1	-0.1%	-1.06	i
CCOc1ccc2[nH]c(=O)c(CN(Cc3ccc(C)cc3)C(=O)N3CCCC3)cc2c1	3.0%	0.78	i

Profiles from above. Values in the order: Hsc70 | WNV protease inh | MT1-MMP reporter
`Cc1cc(=O)oc2c3c4c(cc12)OCCN4CCC3` in the list: 32.0% | x | i
`COc1ccc(C(=O)CC(=O)O)c2c1C=CC(C)(C)O2` in the list: -5.3% | -1.05 | i

Exported field by field: entries from further up.
smiles: Cn1c(N)c(C(=O)NCc2ccccc2)sc1=S
  Hsc70: -11.3%
  WNV protease inh: -0.57
  MT1-MMP reporter: i
smiles: COc1ccc(N(CC(=O)Nc2cc(C)ccc2OC)S(=O)(=O)c2c(C)noc2C)cc1
  Hsc70: -1.6%
  WNV protease inh: 1.46
  MT1-MMP reporter: i

Further records
Values in the order – Hsc70 | WNV protease inh | MT1-MMP reporter
> CCOC(=O)C1=C(N2CCCCC2)c2cc3c(n2C1=O)CCCC3
  -2.6% | -0.97 | i
> COCCCNC(=O)CCc1ccc(S(=O)(=O)Nc2ccc(C)cc2)cc1
  -1.2% | x | i
> CC(NC(=O)Nc1ccccc1C(F)(F)F)C1CCCO1 (stereo unspecified)
  -1.2% | -0.07 | i
> O=c1c2ccccc2ncn1C1CCCCC1
  8.4% | 0.59 | i
> CCOC(=O)c1cn2c3c(c(F)c(F)cc3c1=O)SC(N1CCOCC1)=N2
  -0.6% | x | i
> CC(C)N1C(=O)CN(C2CCCCCC2)C(=O)C1c1ccccc1F (stereo unspecified)
  -1.3% | -1.15 | i
> CCCCn1c(SCC(=O)NCc2ccco2)nc2c1c(=O)n(C)c(=O)n2C
  -6.5% | x | i
> O=S(=O)(c1ccc2c(c1)C(=NO)c1cc(S(=O)(=O)N3CCCCC3)ccc1-2)N1CCCCC1
  1.1% | 1.5 | +
> CNC(=O)c1c(C)nc(SCC(=O)NCc2ccc(OC)cc2)c(C#N)c1-c1ccco1
  -3.8% | -0.41 | i
> CCN(CC)c1ccc(C2C(C(C)=O)C(=O)CC(C)(O)C2C(C)=O)cc1 (stereo unspecified)
  -2.4% | x | i
> CCN(CC)C(=O)CSc1nnc(-c2ccccc2)n1-c1ccccc1
  2.5% | -1.09 | i
> CC1CCN(S(=O)(=O)c2ccc3c(c2)CCN3C(=O)CCC(=O)O)CC1
  -3.7% | 0.82 | i
> CN(c1ccc(C(=O)N2CCCCC2)cc1)S(C)(=O)=O
  4.2% | 0.9 | i
> COc1ccc(OC)c(S(=O)(=O)Nc2cccc(C(C)=O)c2)c1
  2.0% | 0.44 | i
> OC(COc1ccc(OCC(O)CN2CCCCCC2)cc1)CN1CCCCCC1 (stereo unspecified)
  1.5% | -0.54 | i
